GIV-Gai inh: inhibitors of GIV peptide binding to Galpha-i3, primary screen, biochemical, fluorescence polarization, FITC-GIV GBA peptide, rat Galphai3; Guanine nucleotide-binding protein G(i) subunit alpha-3 (Rattus norvegicus), P08753; 90 min; stronger effect = lower value; scaled: aluminum fluoride 0%, vehicle 100%; percent of control (FP), % (concentration not given with the values); 0.42% of 210,000 active; AID 1224905, 2016;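 active means replicate mean at 85% of control or lower, very high polarization wells dropped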;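 further: wells of about 15 µL received 100 nL stock; the first replicate is given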
Target sequence (P08753 whole entry, looked up): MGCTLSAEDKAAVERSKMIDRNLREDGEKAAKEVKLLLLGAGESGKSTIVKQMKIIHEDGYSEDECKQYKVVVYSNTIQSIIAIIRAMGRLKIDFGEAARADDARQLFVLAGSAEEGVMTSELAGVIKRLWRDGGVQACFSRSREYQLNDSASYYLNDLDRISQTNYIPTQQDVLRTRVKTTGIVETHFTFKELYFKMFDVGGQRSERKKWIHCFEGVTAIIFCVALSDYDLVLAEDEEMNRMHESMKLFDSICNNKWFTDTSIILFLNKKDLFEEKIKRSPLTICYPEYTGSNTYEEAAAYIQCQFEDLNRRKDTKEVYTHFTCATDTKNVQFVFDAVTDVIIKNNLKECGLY
Sa growth inh: S. aureus growth inhibition at 42 and 30 °C, primary screen, LtaS inhibitor project, RN4220, two temperatures; OD600, 20 h, 42 °C; stronger effect = lower value; relative growth, % (test concentration not listed); 0.53% of 170,000 active;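 active means growth at 42 °C up to 50% and 20 or more points under that at 30 °C, or under 10% at both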;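 further: 300 nL library stock went into each well; scaled to the means of positive and negative controls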
HCMV UL50-53 inh: inhibitors of HCMV UL50-UL53 interaction, biochemical, HTRF. inhibition, % (no concentration beside the values). normalized percent inhibition. 0.15% of 190,000 active;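 active means both replicates at 50% or more, plus weaker picks with an unusually low signal ratio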;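 further: stock transfer was 100 nL into about 20 µL; 0% = negative control wells and 100% = wells with untagged competitor protein; inactives centre near -12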
Sa growth inh second temp: recorded beside Sa growth inh, whose call it bears; relative growth, %; measured here: growth at 30 °C;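 optical density after 20 h as mean of two plates; 100% = untreated growth and lower means inhibition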
* marks the source's active call; other numbers are inactive results; nt = not tested or not shown; & = joins results of further samples.

nr	mol	GIV-Gai inh	Sa growth inh	Sa growth inh second temp	HCMV UL50-53 inh
1	CCOc1ccc(NC(=O)/C=C\C(=O)N(c2ccc(C(C)C)cc2)C(C(=O)NCc2ccco2)c2ccc(F)cc2)cc1 (stereo not given)	99.6	96.1	68.0	nt
2	CSc1ccc(CCNC(=O)CCc2c(C)nc3ncnn3c2C)cc1	101.6	125.9	91.8	-24.0
3	COc1ccc(CCNC(=O)Cn2cnc3onc(-c4ccc(Cl)cc4)c3c2=O)cc1OC	101.0	99.4	94.8	-10.3
4	COc1ccccc1NC(=O)CSc1nc2c(cc1C#N)CCCC2	102.9	nt	nt	3.0
5	Cc1ccc(S(=O)(=O)N2CCCC2)cc1C(=O)O	100.1	84.3	78.1	-29.1
6	CN(C)CCN(C)Cc1cc(C(C)(C)C)c(O)c(C(C)(C)C)c1	97.2	119.6	103.8	-7.9
7	N#CC1=C(N)C(C#N)=c2s/c(=C/c3cccc(F)c3)c(=O)n2C1c1cccc(F)c1 (stereo not given)	nt	121.2	87.1	4.1
8	O=C(O)/C=C/c1ccc(N2CCCCCC2)cc1	nt	98.2	96.3	-22.8
9	CCCS(=O)(=O)N1CCN(c2ccc(NCC3CCCO3)nn2)CC1 (stereo not given)	101.4	93.7	92.5	-54.6
10	COC(CNC(=O)c1cc2c(s1)CS(=O)(=O)C2)OC	103.0	91.7	91.3	-3.0
11	CN(C)CCCNc1nnnn1-c1ccccc1	nt	79.7	96.4	-6.5
12	O=C(Nc1c(O)c2ccccc2oc1=O)c1cccc(F)c1	104.2	112.1	89.2	-11.6
13	Cc1cccc(C)c1NC(=S)NC12CC3CC(CC(C3)C1)C2	nt	113.8	98.5	2.9
14	COc1cccc(-n2nnc(-c3nc(-c4ccccc4OC)cs3)c2N)c1	116.7	nt	nt	3.5
15	COc1ccc(-c2nc3scc(CCNC(=O)c4cccc(Br)c4)n3n2)cc1	107.5	92.4	96.3	nt
16	CCn1cnc(S(=O)(=O)N2CCCC(C(=O)N3CCN(c4ncccn4)CC3)C2)c1 (stereo not given)	105.6	nt	nt	11.5
17	CS(=O)(=O)c1ccc([C@@H](O)[C@@H](CO)NC(=O)C(Cl)Cl)cc1	nt	13.9	10.9	-31.8&-11.8
18	Cc1cccc(N2CCN(C(=O)CCCC(=O)O)CC2)c1C	104.6	89.8	95.3	-3.0
19	CCN1CCCC(OC(=O)NC2CCCCC2)C1 (stereo not given)	99.9	89.8	85.8	-28.4
20	CCC(C)NC(=O)Cn1nc(C)c(S(=O)(=O)N2CCCCC2)c1C (stereo not given)	nt	92.1	110.2	4.0
21	CN1CCC(=CC(=O)O)CC1	100.6	90.4	84.4	-20.4
22	CC(C)NC(=O)C1c2ccccc2C(=O)N(C)C1c1c[nH]c2ccccc12 (stereo not given)	108.3	118.3	92.5	-0.8
23	CCc1cnc2c(c1SCC(=O)c1ccc(Cl)cc1)c(=O)n(C)c(=O)n2C	102.9	143.6	85.3	nt
24	Cc1ccn2c(NC(=O)c3cccc(Cl)c3)c(-c3ccccc3)nc2c1	103.9	93.9	92.4	10.1
25	COc1cccc(Cn2c(-c3cncs3)nc3ccccc32)c1	nt	120.8	94.8	4.8

Continued, starting with the last 7 of the part before.
nr	mol	GIV-Gai inh	Sa growth inh	Sa growth inh second temp	HCMV UL50-53 inh
19	CCN1CCCC(OC(=O)NC2CCCCC2)C1 (stereo not given)	99.9	89.8	85.8	-28.4
20	CCC(C)NC(=O)Cn1nc(C)c(S(=O)(=O)N2CCCCC2)c1C (stereo not given)	nt	92.1	110.2	4.0
21	CN1CCC(=CC(=O)O)CC1	100.6	90.4	84.4	-20.4
22	CC(C)NC(=O)C1c2ccccc2C(=O)N(C)C1c1c[nH]c2ccccc12 (stereo not given)	108.3	118.3	92.5	-0.8
23	CCc1cnc2c(c1SCC(=O)c1ccc(Cl)cc1)c(=O)n(C)c(=O)n2C	102.9	143.6	85.3	nt
24	Cc1ccn2c(NC(=O)c3cccc(Cl)c3)c(-c3ccccc3)nc2c1	103.9	93.9	92.4	10.1
25	COc1cccc(Cn2c(-c3cncs3)nc3ccccc32)c1	nt	120.8	94.8	4.8
26	O=C(NCCc1nc(-c2ccc(Cl)cc2)n[nH]1)c1cccc(F)c1	101.4	nt	nt	8.4
27	Cc1cc(=O)n2c(c1C#N)SCCC2	nt	92.5	98.2	9.5
28	O=C(Cn1ncn2nc(-c3cccs3)cc2c1=O)NCc1cccc(Br)c1	97.5	145.1	101.4	-13.2
29	COC(=O)c1cccc2cccc(I)c12	99.7	78.2	60.4	-11.6
30	COc1ccc(-c2nc(C(=O)N3CCCC3)nn2-c2ccc(Cl)cc2)cc1	107.2	nt	nt	12.0
31	Cc1ccn2c(Nc3ccc4c(c3)OCCO4)c(-c3ccc(Cl)s3)nc2c1	102.7	94.1	88.0	-13.3
32	CC(=O)N(/C=C1\Sc2ccccc2C1=O)c1cc(C(F)(F)F)ccc1Cl	104.0	nt	nt	-23.8
33	Cc1ccc(C(=O)NCC(c2ccccc2)c2c[nH]c3ccccc23)cc1 (stereo not given)	105.3	nt	nt	-10.9
34	CCOc1ccc(N2C(=O)NC(=O)/C(=C\c3ccc(OCC(=O)O)c(OC)c3)C2=O)cc1	106.5	nt	nt	-28.7
35	COc1cc(OC)c(NC(=O)Cn2c(SCc3ccc(F)cc3)nc3cccnc32)cc1Cl	102.3	nt	nt	7.8
36	O=C(Nc1cccnc1)c1cc(-c2cccc(Cl)c2)on1	98.4	91.8	111.2	21.5
37	COC(=O)c1ccccc1NCNc1ccccc1C(=O)OC	nt	99.0	82.8	-44.4
38	N#Cc1ncc(C(F)(F)F)cc1Oc1ccc(O)cc1	106.5	nt	nt	-18.5
39	CCn1c(C(=O)Nc2ccc(C)c(C)c2)cc2sc(Cl)cc21	102.4	89.6	88.7	nt
40	Cc1cc(N2CCCCC2)nc(N2CCOCC2)n1	nt	112.9	84.0	-3.8
41	CC(=O)Nc1nonc1-c1nnc(SCC(=O)Nc2cccc(C)c2C)n1-c1ccccc1	103.0	101.6	82.0	-6.1
42	CN(Cc1ccccc1)C(=O)c1cnc2sccn2c1=O	103.4	87.2	80.1	nt
43	O=C1SC(Nc2ccc(Br)cc2)C(=O)N1Cc1ccccc1 (stereo not given)	102.9	89.5	67.0	-19.8
44	O=C(CCc1nc2sc3c(c2c(=O)[nH]1)CCCCC3)N1CCN(Cc2ccc3c(c2)OCO3)CC1	107.2	nt	nt	1.9
45	Cc1cc(C)n(CC(=O)O)n1	108.9	102.7	90.9	8.3
46	CS/C(=N\S(=O)(=O)c1ccccc1)NNc1ccccc1	105.3	99.0	93.0	6.1
47	COc1ccc(CCNC(=O)C2CCCCC2)cc1OC	95.0	95.8	89.3	-23.9
48	Cc1cccc(OCCCCn2c(C3CC(=O)N(c4ccccc4Cl)C3)nc3ccccc32)c1 (stereo not given)	106.2	104.3	7.1	-11.0
49	CCN(C(=O)CSc1ncnc2ccccc12)C1CCCCC1	nt	54.7	63.9	-5.0
50	Cc1ccc(C(=O)N2CCN(Cc3cc(=O)n4nc(-c5ccccc5)sc4n3)CC2)cc1	98.3&104.1	96.3	89.5	nt
51	O=C(Cc1n[nH]c(=O)c2ccccc12)NCC(c1ccc(F)cc1)N1CCOCC1 (stereo not given)	nt	95.3	81.5	-34.8
52	Cc1nn(S(=O)(=O)c2ccc(Cl)cc2)c(C)c1S(=O)(=O)N1CCCC(C)C1 (stereo not given)	103.2	nt	nt	-6.6
53	O=C(Nc1cccc2ncccc12)c1cc2ccccc2o1	nt	99.2	73.7	-12.2
54	COc1cc(C(=O)N2CCCCC2)cc(OC)c1OC	98.5	77.5	89.9	-4.1
55	Cc1ccc(CNC(=O)c2cnn(-c3cccc(C)c3)c2C2CCN(C(=O)OC(C)(C)C)CC2)cc1	108.9	79.3	83.8	nt
56	CCOC(=O)/C(C#N)=C/Nc1nnc(SCC#N)s1	132.8	92.8	91.6	-67.7
57	O=C(O)c1cccc(Nc2c(-c3cc(Br)ccc3O)nc3cnccn23)c1	103.2	nt	nt	-68.6
58	CCCCS(=O)(=O)Nc1ccc(Cc2ccncc2)cc1	nt	86.3	88.3	3.8
59	NC(CO)C(=O)NNCc1ccc(O)c(O)c1O (stereo not given)	108.6&106.0	95.4&100.7	100.3&91.5	-36.1&-10.5&-3.2&-22.9&-11.7
60	Cc1nc2ccccc2nc1Sc1nnc(-c2ccccc2)o1	nt	72.5	54.0	-17.3
61	CC(C)c1ccc(Nc2c(-c3ccc(N(C)C)cc3)nc3nc[nH]n23)cc1	98.2&101.3	97.9	86.3	-6.8
62	O=C1NC2(CCCCC2)Nc2ccccc21	107.0	91.1	96.4	2.9
63	CCOC(=O)c1cc(-c2ccc(Br)s2)n[nH]c1=O	102.7	96.5	83.6	-132.6
64	CCOc1ccc(C(=O)NCCSc2c(C)[nH]c3ccccc23)cc1OCC	103.9	90.5	81.6	-10.2
65	COc1cc(Cl)c(NC(=O)CN(C)S(=O)(=O)c2ccc3[nH]c4c(c3c2)CCCC4)c(OC)c1	101.0	127.7	89.5	nt
66	CCN(CC)CCCNC(=O)c1cn(CC(C)C)c(=O)c2c1c1ccccc1n2C	117.1	85.1	89.0	5.5
67	O=C1Nc2ccc(S(=O)(=O)Nc3ccccc3O)c3cccc1c23	113.1	119.2	91.3	-104.6
68	CC(C)N(C(=S)Nc1ccc(Oc2ccccc2)cc1)C(C)c1ccccn1 (stereo not given)	102.5	127.2	57.0	nt
69	Cc1cc(OCC(=O)NCc2ccc3c(c2)OCO3)ccc1Cl	109.3	103.7	94.7	-1.9
70	Cn1cc(C(=O)NCCC2=CCCCC2)c2[nH]c(=O)n(-c3ccccc3)c(=O)c21	99.5	nt	nt	-13.4
71	CCOc1ccc(-c2cnc(NCc3ccc(OC)cc3OC)n2C)cc1	110.1	120.1	82.0	-4.6
72	Cc1ccc(NC(=O)Nc2ccc(C(F)(F)F)cc2)cc1NS(C)(=O)=O	107.5	103.8	99.8	-18.8
73	O=C(Nc1ccc(C(F)(F)F)cc1)Nc1ccc(N2CCN(c3ncccc3C(F)(F)F)CC2)nc1	103.9	88.6	81.0	7.4
74	COc1cc(CNCCSc2nnnn2C)ccc1OCc1cccc(Cl)c1	96.4	nt	nt	-19.3
75	C=CCn1c(O)c(C=Nc2ccccc2)sc1=S	132.5	107.0&94.7	79.7&64.5	-10.9&5.1

(cont.)
nr	mol	GIV-Gai inh	Sa growth inh	Sa growth inh second temp	HCMV UL50-53 inh
76	Cc1cc(C)n(C2CCS(=O)(=O)C2)n1 (stereo not given)	101.0	nt	nt	-20.9
77	COc1ccccc1CCNC(=O)c1cc2c(=O)n3cccc(C)c3nc2n1C	98.2	111.5	89.2	-20.2
78	CCc1c(C)nc2ncnn2c1Nc1ccc(F)c(F)c1	100.1	nt	nt	-4.8
79	CC(C)CC(C(=O)c1c(N)n(C)c(=O)n(C)c1=O)N1C(=O)c2ccccc2C1=O (stereo not given)	nt	102.7	96.3	13.8
80	Cc1cc(C(=O)OCC(=O)NCc2ccco2)c(C)o1	nt	96.1	95.7	-8.9
81	COc1ccc(C2CC(=O)N(c3ccc(F)cc3)C(=O)C2)cc1OC	92.1	nt	nt	4.2
82	COc1ccc2nc(NC(=O)c3nn(C(C)C)c(=O)c4ccccc34)sc2c1	nt	68.3	47.0	-27.5
83	Cc1ccc(N/N=C(\C#N)C(=O)c2cc(C)nn2C(C)(C)C)cc1	103.9	91.2	52.4	-19.6
84	CSc1nc(C)cc(OCC(=O)N2CCCCC2)n1	99.9	93.1	82.6	nt
85	Cc1ccc(-n2c(=O)c3c(C)c(C(=O)N(C)C)sc3n(Cc3ccccc3C)c2=O)cc1C	101.4	117.4	86.3	nt
86	COc1cc(-c2noc(-c3cc(C(C)C)[nH]n3)n2)cc(OC)c1OC	104.4	99.6	88.1	nt
87	CNC(=O)C1CC(=O)N(CCc2ccc(C)cc2)C1 (stereo not given)	104.0	91.8	79.2	nt
88	O=C(CCCc1nnc2c(=O)n(-c3cccc(F)c3)ccn12)NCCc1c[nH]c2ccccc12	105.5	nt	nt	-9.6

Single entries from the results shown:
Under Sa growth inh second temp, #84 is entered as 82.6
Under HCMV UL50-53 inh, #82 is entered as -27.5
Under Sa growth inh second temp, #80 is entered as 95.7
Under GIV-Gai inh, #88 is entered as 105.5
Under Sa growth inh, #87 is entered as 91.8

An unsorted share of the library (roughly 0.83% active in at least one column).
